Source: PubChem BioAssay
MLL AF4-AF9 inh: inhibitors of human MLL-AF4/AF9 interaction; actives 0.47% (n = 350,000); inhibition, % at 10 µM; P42568; AlphaScreen, biotin-AF4 peptide binding to FLAG-AF9;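 active = every replicate reaching a set inhibition limit, whatever the replicate mean, cut at about 25% in these data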;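 note: 0% = plate neutral control median and 100% = total signal loss; the record names both 10 and 1 µM as test concentration; the first replicate is given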
Target sequence (P42568 whole entry, looked up): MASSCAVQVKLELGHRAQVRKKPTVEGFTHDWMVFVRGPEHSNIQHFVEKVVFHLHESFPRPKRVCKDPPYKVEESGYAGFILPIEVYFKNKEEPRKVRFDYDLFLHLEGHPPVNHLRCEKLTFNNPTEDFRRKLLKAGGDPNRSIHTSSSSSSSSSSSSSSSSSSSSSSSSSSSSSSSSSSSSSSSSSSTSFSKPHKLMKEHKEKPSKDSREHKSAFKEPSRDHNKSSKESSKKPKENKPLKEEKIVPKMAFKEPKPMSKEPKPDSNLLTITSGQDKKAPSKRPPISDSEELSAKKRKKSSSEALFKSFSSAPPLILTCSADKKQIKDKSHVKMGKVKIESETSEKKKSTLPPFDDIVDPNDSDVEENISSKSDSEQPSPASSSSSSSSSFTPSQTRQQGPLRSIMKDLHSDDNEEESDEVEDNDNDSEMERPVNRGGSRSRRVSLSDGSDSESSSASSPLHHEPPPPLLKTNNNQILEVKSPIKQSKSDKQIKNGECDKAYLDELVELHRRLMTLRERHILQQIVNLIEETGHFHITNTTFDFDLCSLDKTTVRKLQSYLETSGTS
FGF22 binding: binders of recombinant human FGF22 by thermal shift | Q9HCT0 | SYPRO orange fluorescence; percent of sucrose octasulfate shift, DMSO zero | calls only at 9.99 µM | actives 1.5% (n = 340,000) | AID 651658;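 active = melting point raised past a set limit in the mean and every replicate; three in four hits are not shown here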
Target sequence (Q9HCT0 whole entry, looked up): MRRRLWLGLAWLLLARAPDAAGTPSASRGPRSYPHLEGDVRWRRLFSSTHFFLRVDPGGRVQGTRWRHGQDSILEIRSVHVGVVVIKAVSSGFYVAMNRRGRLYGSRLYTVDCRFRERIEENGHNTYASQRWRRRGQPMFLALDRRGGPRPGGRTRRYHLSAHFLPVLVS
Starred values were filed as active, the others as inactive; i = inactive; nt = no result given; & = joins results of further samples.

Each structure is followed by: FGF22 binding, MLL AF4-AF9 inh
> O=C(N[C@H]1CC[C@@H](CCNS(=O)(=O)Cc2ccccc2)O[C@H]1CO)c1cnccn1
    i, -18
> CC(C)NC(=O)Nc1ccc2c(c1)CC(=O)N([C@H](C)CO)C[C@H](C)[C@H](CN(C)Cc1ccc(C(=O)Nc3ccccc3N)cc1)O2
    i, 3.1
> COCC(=O)N1C[C@H](C)[C@H](OC)CN(C)C(=O)c2ccc(NC(=O)c3ccccc3)cc2OC[C@H]1C
    i, -11
> O=C(CN1CCOCC1)NCC[C@H]1CC[C@@H](NC(=O)Nc2ccc(Cl)cc2)[C@@H](CO)O1
    i, -0.6
> COCC(=O)N(C)C[C@@H]1Oc2cc(C#CC(C)(C)O)ccc2S(=O)(=O)N([C@@H](C)CO)C[C@@H]1C
    i, -3.1
> COc1ccc(S(=O)(=O)Nc2ccc3c(c2)C(=O)N([C@H](C)CO)C[C@@H](C)[C@@H](CN(C)Cc2ccc(Oc4ccccc4)cc2)O3)cc1
    i, 1.4
> C[C@@H]1CN([C@H](C)CO)C(=O)c2cc(C#C[C@@H](C)O)cnc2O[C@H]1CN(C)Cc1ccc(-c2ccccc2)cc1
    i, 5.0
> C[C@@H](NC(=O)C[C@@H]1C[C@@H]2c3cc(NS(C)(=O)=O)ccc3O[C@@H]2[C@@H](CO)O1)c1ccccc1
    i, -1.5
> O=C(C[C@H]1C=C[C@H](NC(=O)CN2CCOCC2)[C@@H](CO)O1)NC1CCCCC1
    i, -3.7
> CCCC#Cc1ccc2c(c1)O[C@@H](CN(C)C(=O)CC1CC1)[C@H](C)CN([C@H](C)CO)S2(=O)=O
    i, 3.2
> Cc1ccc(S(=O)(=O)Nc2ccc3c(c2)C(=O)N([C@@H](C)CO)C[C@@H](C)[C@H](CN(C)Cc2ccc(C(=O)O)cc2)O3)cc1
    i, -2.4
> CC(=O)N(C)C[C@H]1Oc2cc(C#Cc3ccncc3)ccc2S(=O)(=O)N([C@H](C)CO)C[C@@H]1C
    i, -1.9
> C[C@H]1CN([C@@H](C)CO)C(=O)c2cccc(NC(=O)NC3CCCCC3)c2O[C@H]1CN(C)Cc1ccncc1
    i, -0.2
> C[C@H](CO)N1C[C@H](C)[C@H](CN(C)C(=O)c2ccncc2)Oc2ncc(-c3ccc(C(=O)N(C)C)cc3)cc2C1=O
    i, -2.3
> C[C@@H]1CN([C@H](C)CO)S(=O)(=O)c2ccc(C#CC3CC3)cc2O[C@H]1CN(C)C(=O)c1cccnc1
    i, -2.1

New compounds follow.
Each structure is followed by: FGF22 binding, MLL AF4-AF9 inh
> Cc1ccc(S(=O)(=O)N(C)C[C@H]2OCCCC[C@H](C)Oc3ccc(N(C)C)cc3C(=O)N([C@@H](C)CO)C[C@@H]2C)cc1
    i, 16
> CCC(=O)N1CC2(CCN(Cc3nccs3)CC2)c2c(n(C)c3cc(OC)ccc23)[C@H]1CO
    i, 1.6
> Cc1ccccc1S(=O)(=O)N1CC[C@@H]2[C@H](CO)N(C)c3ccc(C#Cc4ccc(F)cc4)cc3[C@@H]21
    i, 3.3
> CO[C@@H]1CN(C)C(=O)c2ccc(NC(=O)Nc3ccccc3)cc2OC[C@@H](C)N(CC2CC2)C[C@@H]1C
    i, 4.9
> O=C(NC1CCCC1)N1CCCCN2[C@@H](CO)[C@H](c3ccc(-c4cncnc4)cc3)[C@@H]2C1
    i, -0.4
> COc1ccccc1NC(=O)N1CCCCN2[C@H](C1)[C@H](c1ccc(-c3ccc(C)cc3)cc1)[C@@H]2CO
    i, 2.8
> COCc1cn(CC[C@H]2CC[C@@H](NC(=O)CCN3CCCCC3)[C@@H](CO)O2)nn1
    i, -12
> Cc1ccccc1-c1ccc([C@H]2[C@H](CO)N3CCCCN(C(=O)Nc4ccc(F)cc4)C[C@@H]23)cc1
    i, 6.4
> COc1ccc(S(=O)(=O)Nc2ccc3c(c2)C(=O)N([C@H](C)CO)C[C@@H](C)[C@H](CN(C)Cc2ccncc2)O3)cc1
    i, -1.2
> C[C@H](CO)N1C[C@H](C)[C@H](CN(C)C(=O)Nc2ccc(C(F)(F)F)cc2)Oc2c(NC(=O)c3ccc(-c4nccs4)cc3)cccc2C1=O
    i, 4.2
> COc1ccc2c3c(n(C)c2c1)[C@H](CO)N(Cc1ccc2c(c1)OCO2)CC31CN(C(=O)c2ccc3c(c2)OCO3)C1
    i, 1.0
> CO[C@H]1CN(C)C(=O)c2cc(NC(C)=O)ccc2OC[C@H](C)N(C(=O)c2ccncc2)C[C@@H]1C
    i, -0.1
> O=C(NCC1CC1)[C@H]1[C@H](CO)[C@H]2Cn3c(ccc(-c4ccccc4)c3=O)[C@H]2N1Cc1cocn1
    i, 2.4
> C[C@H](CO)N1C[C@H](C)[C@@H](CN(C)C(=O)c2cnccn2)Oc2cc(Br)ccc2S1(=O)=O
    i, -1.3&1.2
> O=C(Nc1ccc(F)cc1)N1CCCCN2[C@H](CO)[C@@H](c3ccc(C#CC4CC4)cc3)[C@@H]2C1
    i, -1.3

Overlap with the part before: 2 compounds, followed by the next part.
Each structure is followed by: FGF22 binding, MLL AF4-AF9 inh
> C[C@H](CO)N1C[C@H](C)[C@@H](CN(C)C(=O)c2cnccn2)Oc2cc(Br)ccc2S1(=O)=O
    i, -1.3&1.2
> O=C(Nc1ccc(F)cc1)N1CCCCN2[C@H](CO)[C@@H](c3ccc(C#CC4CC4)cc3)[C@@H]2C1
    i, -1.3
> Cc1noc(C)c1NC(=O)Nc1ccc2c(c1)C(=O)N([C@@H](C)CO)C[C@H](C)[C@H](CN(C)CC1CCCCC1)OCCCC[C@H](C)O2
    i, 0.6
> Cc1noc(C)c1NC(=O)N(C)C[C@H]1OCCCC[C@@H](C)Oc2ccc(NS(=O)(=O)c3cccs3)cc2C(=O)N([C@H](C)CO)C[C@@H]1C
    i, 4.9
> COCC(=O)Nc1ccc2c(c1)C(=O)N(C)C[C@H](OC)[C@@H](C)CN(Cc1ccccc1)[C@@H](C)CO2
    i, 4.0
> C[C@@H]1CN([C@@H](C)CO)C(=O)c2cc(NC(=O)Nc3ccc4c(c3)OCO4)ccc2O[C@@H]1CN(C)C
    i, 1.6
> CCC(=O)Nc1ccc2c(c1)C(=O)N(C)C[C@H](OC)[C@@H](C)CN(C(=O)c1ccccn1)[C@H](C)CO2
    i, 32*
> COc1ccc(NC(=O)N(C)C[C@@H]2OCCCC[C@H](C)Oc3ccc(NS(C)(=O)=O)cc3C(=O)N([C@@H](C)CO)C[C@H]2C)cc1
    i, -4.4
> C[C@H]1CN([C@@H](C)CO)C(=O)Cc2cc(NS(=O)(=O)c3ccc(F)cc3)ccc2O[C@H]1CN(C)CC1CC1
    i, -3.2
> C[C@H]1CN([C@@H](C)CO)C(=O)Cc2cc(NC(=O)Nc3ccc(F)cc3)ccc2O[C@H]1CN(C)Cc1ccc(C(=O)Nc2ccccc2N)cc1
    i, -1.2
> COc1cccc(NC(=O)N(C)C[C@H]2Oc3ncc(C#Cc4ccccc4)cc3C(=O)N([C@@H](C)CO)C[C@@H]2C)c1
    i, 0.6
> COc1ccc2c3c(n(C)c2c1)[C@H](CO)N(CC1CCCCC1)CC31CN(C(C)=O)C1
    i, -4.6
> C[C@H]1CN([C@@H](C)CO)C(=O)Cc2cc(NC(=O)CCCN(C)C)ccc2O[C@@H]1CN(C)S(=O)(=O)c1cn(C)cn1
    i, -5.0
> Cc1ccc(S(=O)(=O)Nc2ccc3c(c2)C(=O)N([C@@H](C)CO)C[C@@H](C)[C@@H](CN(C)S(=O)(=O)c2cccs2)O3)cc1
    i, 0.6
> N#Cc1ccc(-c2ccc([C@H]3[C@@H](CO)N4C(=O)CNC[C@@H]34)cc2)cc1
    i, -1.1
> C[C@@H]1CN([C@H](C)CO)C(=O)c2cc(-c3cccnc3)cnc2O[C@H]1CN(C)C(=O)C1CCC1
    i, -2.2
> C[C@@H]1CN([C@@H](C)CO)C(=O)c2ccccc2-c2ccccc2CO[C@@H]1CN(C)Cc1cccc(O)c1
    i, 3.0

An excerpt of these results, tab-delimited.
mol	FGF22 binding	MLL AF4-AF9 inh
COc1cccc(NC(=O)N(C)C[C@H]2Oc3ncc(C#Cc4ccccc4)cc3C(=O)N([C@@H](C)CO)C[C@@H]2C)c1	i	0.6
COc1ccc2c3c(n(C)c2c1)[C@H](CO)N(CC1CCCCC1)CC31CN(C(C)=O)C1	i	-4.6
C[C@H]1CN([C@@H](C)CO)C(=O)Cc2cc(NC(=O)CCCN(C)C)ccc2O[C@@H]1CN(C)S(=O)(=O)c1cn(C)cn1	i	-5.0
Cc1ccc(S(=O)(=O)Nc2ccc3c(c2)C(=O)N([C@@H](C)CO)C[C@@H](C)[C@@H](CN(C)S(=O)(=O)c2cccs2)O3)cc1	i	0.6

Other compounds follow.
Each structure is followed by: FGF22 binding, MLL AF4-AF9 inh
> COc1ccc2c3c(n(C)c2c1)[C@H](CO)N(C(=O)C1CCCC1)CC31CCN(Cc2cccc(F)c2)CC1
    i, 26*
> C[C@H](CO)N1C[C@H](C)[C@@H](CN(C)C(=O)CN(C)C)Oc2ncc(C#Cc3ccncc3)cc2C1=O
    i, -5.9
> COc1ccc(NC(=O)Nc2ccc3c(c2)CC(=O)N([C@H](C)CO)C[C@@H](C)[C@@H](CN(C)CC2CC2)O3)cc1
    i, 8.7
> C[C@@H]1CN([C@H](C)CO)C(=O)c2cccc(NC(=O)Nc3cccc4ccccc34)c2O[C@@H]1CN(C)Cc1ccc(C(F)(F)F)cc1
    i, 1.2
> Cc1cc(C(=O)Nc2cccc3c2O[C@@H](CN(C)C)[C@H](C)CN([C@@H](C)CO)C3=O)n(C)n1
    i, -3.5
> O=C(C1CCCCC1)N1CC[C@@H]2[C@H](CO)Nc3ccc(Br)cc3[C@@H]21
    i, 4.4
> C[C@H](NC(=O)C[C@@H]1CC[C@@H]2[C@H](COc3ccc(NS(=O)(=O)c4ccc(Cl)cc4)cc3C(=O)N2C)O1)c1ccccc1
    i, -1.9
> CN(C)CC(=O)Nc1ccc2c(c1)[C@H]1C[C@@H](CC(=O)NCCN3CCCCC3)O[C@@H](CO)[C@H]1O2
    i, -0.3
> C[C@H]1CN([C@@H](C)CO)C(=O)c2cccc(NS(=O)(=O)c3ccc(Cl)cc3)c2O[C@@H]1CN(C)Cc1ccc(Cl)c(Cl)c1
    i, -1.1
> C[C@@H]1CCCCO[C@H](CN(C)C(=O)C2CCCCC2)[C@@H](C)CN([C@@H](C)CO)C(=O)c2cc(NS(=O)(=O)c3cn(C)cn3)ccc2O1
    i, -1.4
> O=S(=O)(CS(=O)(=O)c1ccc(Br)cc1)c1ccc(Br)cc1
    i, -1.4
> O=C(C[C@@H]1CC[C@H]2[C@@H](COC[C@H](O)CN2CCc2ccccc2)O1)NCc1ccc(Oc2ccccc2)cc1
    i, 6.9
> C[C@H]1CN([C@@H](C)CO)C(=O)c2cccc(NC(=O)Nc3cccc4ccccc34)c2O[C@H]1CN(C)C(=O)NC1CCCCC1
    i, 6.3
> C[C@@H]1CN([C@H](C)CO)C(=O)Cc2cc(N(C)C)ccc2O[C@H]1CN(C)C(=O)Nc1ccccc1
    i, 3.5
> N#C[C@@H]1N[C@H](CO)[C@@H]1c1ccc(-c2cccc(F)c2)cc1
    i, -0.3

(continued)
Each structure is followed by: FGF22 binding, MLL AF4-AF9 inh
> CCNC(=O)C[C@@H]1CC[C@@H]2[C@H](COc3ccc(NC(=O)c4cccs4)cc3C(=O)N2C)O1
    i, -0.1
> CCNC(=O)[C@@H]1[C@@H](CO)[C@@H]2Cn3c(ccc(C4=CCCC4)c3=O)[C@@H]2N1C(=O)C1CC1
    i, -0.1
> Cn1cnc(CCNC(=O)C[C@@H]2CC[C@H]3[C@@H](COC[C@H](O)CN3C(=O)Nc3ccccc3)O2)c1
    i, 1.4
> O=C(C[C@H]1C[C@H]2c3cc(NC(=O)Cc4ccncc4)ccc3O[C@H]2[C@@H](CO)O1)NCc1cc(F)ccc1F
    i, 0.8
> C[C@@H]1CN([C@@H](C)CO)C(=O)c2cccc(NC(=O)c3nc4ccccc4s3)c2O[C@@H]1CN(C)S(=O)(=O)c1ccc(F)cc1
    i, -0.5
> O=C(C[C@H]1CC[C@@H]2[C@H](COC[C@@H](O)CN2CC2CCOCC2)O1)NCc1ccc(Cl)cc1
    i, 3.0
> COc1cccc(NC(=O)N[C@H]2CC[C@@H](CC(=O)NCc3ccccn3)O[C@H]2CO)c1
    i, 3.6
> CN1CCN(C(=O)C[C@H]2CC[C@@H]3[C@H](COC[C@@H](O)CN3C(=O)Nc3ccc(Cl)cc3)O2)CC1
    i, -2.1
> COc1ccc(C#Cc2ccc([C@@H]3[C@@H](CO)N4CCCCN(S(=O)(=O)c5cn(C)cn5)C[C@@H]34)cc2)cc1
    i, -4.1
> COc1ccc2c3c(n(C)c2c1)[C@H](CO)N(C(=O)CN(C)C)CC31CCN(Cc2cccnc2)CC1
    i, 1.6
> C[C@@H]1CN([C@@H](C)CO)C(=O)c2cccc(NC(=O)c3cnccn3)c2O[C@H]1CN(C)Cc1ccc(C(F)(F)F)cc1
    i, -8.3
> Nc1[nH]c(C(=O)c2ccc(Br)cc2)c(-c2ccccn2)c1C(=O)NCCc1c[nH]c2ccccc12
    nt, -1.3
> C[C@H](CO)N1C[C@H](C)[C@H](CN(C)Cc2ccc(C(=O)O)cc2)OCc2cnnn2CCCC1=O
    i, -2.4
> CC(C)NC(=O)N(C)C[C@H]1Oc2c(NC(=O)CCCCCC(=O)Nc3ccccc3N)cccc2C(=O)N([C@@H](C)CO)C[C@H]1C
    i, 0.6
> Cc1noc(C)c1S(=O)(=O)Nc1cccc2c1O[C@@H](CN(C)Cc1ccc3c(c1)OCO3)[C@@H](C)CN([C@@H](C)CO)C2=O
    i, -3.1
> COc1cccc(-c2cnc3c(c2)C(=O)N([C@H](C)CO)C[C@@H](C)[C@H](CN(C)CC2CCCC2)O3)c1
    i, -5.8
> CCS(=O)(=O)Nc1ccc2c(c1)C(=O)N(C)C[C@H](OC)[C@@H](C)CN[C@@H](C)CO2
    i, -1.2
> COc1ccc2c3c(n(C)c2c1)[C@@H](CO)N(C(=O)CN1CCOCC1)CC31CN(C(=O)Nc2cccc(F)c2)C1
    i, 0.0

Some of the compounds tested. The share of hits here may be higher or lower than overall.
